# Screening results: PubChem BioAssay, National Center for Advancing Translational Sciences (NCATS)
# Sfp PPTase inh: qHTS Assay for Inhibitors of Bacillus subtilis Sfp phosphopantetheinyl transferase (PPTase). Biochemical Sfp PPTase activity, qHTS. Potency, µM, without a hit: max response, negative = inhibition, actives largely listed as inhibitors. 310,000 compounds, 3.5% hits; active = well fitted inhibition curve with a large enough effect; inconclusive = small, poorly fitted or top-dose-only effect, or another doubt; inactive = no such curve, though single readings can be large or run the other way;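 note: the enzyme is Sfp with the accession as filed and its product quenches rhodamine fluorescence; potency is the fitted concentration of half-maximal effect; 0% = enzyme reaction without inhibitor and -100% = no enzyme wells; top concentration of the series not given in the record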
#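 Compounds were incubated with enzyme (final 15 nM) for 15 min at room temperature before substrate addition started the reaction. Fluorescence at 525 nm excitation, 598 nm emission was recorded immediately and after 30 minutes.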
# Menin MLL FP FL: qHTS Assay for Inhibitors Targeting the Menin-MLL Interaction in MLL Related Leukemias: Competition With Fluorescein Labeled MLL-derived Peptide; Fluorescence polarization, fluorescein-MLL peptide displacement from menin; FP activity change, % at 61.4 µM; 290,000 tested, under 10 active; inconclusive = falling polarisation curve, or a change in total fluorescence; inactive = total fluorescence flat and polarisation flat or rising; no compound was filed as active; the % refers to the polarisation; negative = inhibition;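 note: % of control where 0% means no effect; inhibitors lower the polarisation; unlabelled MLL peptide was the positive control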
# PINK1 expr mod: A Quantitative High throughput Screen to Identify Chemical Modulators of PINK1 Expression. PINK1 immunofluorescence, high-content cytometry, 24 h. Potency, µM (series often up to 76.6 µM), inactives show top-dose activation (PINK1 increase), actives largely listed as activators. 410,000 compounds, 0.2% hits; active = well fitted activation curve with a large enough effect; inconclusive = small, poorly fitted or top-dose-only effect; inactive = flat fitted curve, though single readings scatter; cell line not stated here;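 note: potency is the fitted concentration of half-maximal effect; % of control where 0% means no effect; nearly all actives have a fitted effect of over 65% in size; a mitochondrial uncoupler was the plate control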
#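 Fluorescence from anti-PINK1 antibody, together with nuclear and cell stains, was scanned on a laser-scanning cytometer. Before staining, stable-line cells were incubated 24 hours with compounds at 5 concentrations; primary antibody 12 h at 10 degrees C.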
# TRPML1 inh: qHTS for Inhibitors of the Human Mucolipin Transient Receptor Potential 1 (TRPML1); Mucolipin-1 (Homo sapiens), Q9GZU1; TRPML1-inducible cells, Ca2+ dye fluorescence, FDSS; stronger effect = lower value; inhibition of EC80 agonist-evoked calcium signal; activity change, negative = inhibition, % (no concentration beside the values); 390,000 compounds, 0.02% hits; AID 624415, 2012; in the data active means activity change below about -50%; inconclusive means about -30% to -50%; inactive means above about -30%;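 note: stimulus is agonist 54-4 at its EC80 concentration; % is set by controls: 0 for no effect and ±100 for the full control effect; compound concentration not given in the record; the text of the record puts the active cut at -80%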
#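 Calcium fluorescence in TRPML1-DL cells induced overnight with Tet: a 110 s read after compound pin addition, then a 110 s antagonist read after challenge with 54-4 at 4 uM final (EC80).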
# TRPML1 ag: qHTS for Agonists of the Human Mucolipin Transient Receptor Potential 1 (TRPML1); Mucolipin-1 (Homo sapiens), Q9GZU1; TRPML1-expressing cells, Ca2+ dye fluorescence, FDSS; host cell line not named in the record; reference of the full effect not given here; activation, % (concentration not given with the values); 410,000 compounds, 0.12% hits; in the data active = activation above about 50%; inconclusive = about 30% to 50%; inactive = below about 30%; note: 0% is about no effect; the text of the record puts the active cut at 80%
#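 TRPML1-DL cells, Tet-induced overnight (~16 h, 37 degrees C), loaded 45-90 min at room temperature with Ca8 no-wash calcium dye plus quencher. FDSS fluorescence: 10 s baseline, compound pin-transfer, 110 s agonist read, then EC80 54-4 (4uM final) and 110 s antagonist read.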
# TRPV1 potentiator: HTS Assay for Compounds that Act as Potentiators of the Vanilloid Receptor 1; Transient receptor potential cation channel subfamily V member 1 (Homo sapiens), Q8NER1; TRPV1-expressing cells, Fluo-8 calcium influx, capsaicin EC20 potentiation; host cell line not named in the record; control for the full effect not named in the record; potentiation, % at 8.33 µM; 320,000 compounds, 0.02% hits; AID 540277, 2011; active means potentiation above 80%; inconclusive means 30% to 80%; inactive means below 30%; note: 0% is about no effect
# Target sequence (Q8NER1 whole entry, looked up): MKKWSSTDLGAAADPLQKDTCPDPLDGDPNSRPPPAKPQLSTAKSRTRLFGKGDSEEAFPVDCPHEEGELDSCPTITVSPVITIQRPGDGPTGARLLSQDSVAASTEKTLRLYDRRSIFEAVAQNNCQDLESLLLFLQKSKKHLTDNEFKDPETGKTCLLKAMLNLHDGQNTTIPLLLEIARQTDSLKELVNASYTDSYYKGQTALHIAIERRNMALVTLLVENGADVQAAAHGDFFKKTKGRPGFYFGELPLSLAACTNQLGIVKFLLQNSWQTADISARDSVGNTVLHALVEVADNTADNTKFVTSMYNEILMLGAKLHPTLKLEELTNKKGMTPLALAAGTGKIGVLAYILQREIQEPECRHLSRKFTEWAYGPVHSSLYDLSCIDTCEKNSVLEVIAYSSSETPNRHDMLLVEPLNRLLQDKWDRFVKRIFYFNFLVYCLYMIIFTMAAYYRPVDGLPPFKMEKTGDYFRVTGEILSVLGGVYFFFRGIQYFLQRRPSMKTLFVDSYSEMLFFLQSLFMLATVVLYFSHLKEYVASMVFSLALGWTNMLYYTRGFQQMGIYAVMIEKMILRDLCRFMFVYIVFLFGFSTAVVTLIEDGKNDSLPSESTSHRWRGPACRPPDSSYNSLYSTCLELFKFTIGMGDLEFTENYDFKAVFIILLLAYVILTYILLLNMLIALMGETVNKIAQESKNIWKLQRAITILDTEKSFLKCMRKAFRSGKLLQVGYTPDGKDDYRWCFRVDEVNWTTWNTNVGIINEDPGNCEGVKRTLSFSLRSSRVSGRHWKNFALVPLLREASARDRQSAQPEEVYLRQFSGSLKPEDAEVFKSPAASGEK
#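 Fluo-8 calcium influx in TRPV1-expressing cells, kinetic read (ex 480/em 520 nm). Compound added and read 3 min for agonist activity, followed by capsaicin at EC20 final and 2 min further read for enhancement.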
# ClpP mod: qHTS Assay for Activators of ClpP | ATP-dependent Clp protease proteolytic subunit (Bacillus subtilis (strain 168)), P80244 | purified B. subtilis ClpP, FRET peptide cleavage, 20 min | Potency, µM (doses to about 57.5 µM), for inactives: at the top dose activity change, negative = active | 340,000 compounds, 1.9% hits | AID 651965, 2013; active = well fitted falling curve with a large enough effect; inconclusive = small, poorly fitted or top-dose-only effect; inactive = no such curve, though single readings can be large or run the other way; note: potency is the fitted concentration of half-maximal effect; the source files actives as falling curves though it sought activators and does not explain the sign; nearly all actives have a fitted effect of over 65% in size; many hits overshoot -100%
# Target sequence (P80244 whole entry, looked up): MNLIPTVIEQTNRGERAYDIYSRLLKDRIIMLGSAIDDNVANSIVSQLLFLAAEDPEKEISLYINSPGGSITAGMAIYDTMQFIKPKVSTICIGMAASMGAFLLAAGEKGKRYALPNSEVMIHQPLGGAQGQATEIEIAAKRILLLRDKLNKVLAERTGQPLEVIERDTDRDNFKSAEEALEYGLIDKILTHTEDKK
#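 Purified B. subtilis ClpP, 10 microg/mL final in Tris/HCl pH8 with KCl, BSA, glycerol and Tween-20, cleaved an Abz/nitrotyrosine-quenched decapeptide. Fluorescence (ex 320, em 430) was read at 0 and 20 min at room temperature. Delta was normalized to 5.8 microM ADEP and DMSO/no-enzyme controls.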
# Active calls of the source: *; ? = inconclusive; · = not tested or not shown; & = joins results of further samples; [ ] = dose if it differs, or a comment. Rows are unselected. Share with any hit: about 4.4%.
SMILES,Sfp PPTase inh,Menin MLL FP FL,PINK1 expr mod,TRPML1 inh,TRPML1 ag,TRPV1 potentiator,ClpP mod
Cc1cc(C)cc(CC2CC(=O)N(c3cc(C)on3)C2=O)c1 (centres undefined),6%,2.0,-3.4%[38.3 µM],27,-0.7,-19,1.5%
CC(C)Oc1ccc(C(=O)OCC(=O)NC(=O)NC2CCCC2)cc1,·,·,5.3%,13,2.4,1,-0.3%
O=C(CCS(=O)(=O)Cc1ccccc1)Nc1ncc([N+](=O)[O-])s1,9%,-0.6,4.5%,32,0.6,0,-0.2%
COc1ccccc1NC(=O)COc1ccc(C(F)(F)F)cc1[N+](=O)[O-],·,·,-2.5%,-12,-0.2,·,-1.1%
c1ccc(COc2ncnc3c2ncn3CCCNCCN2CCOCC2)cc1,·,·,0.4%,9,0.2,·,-0.1%
CCCCn1c(Cc2ccccc2)n[nH]c1=S,?,-1.9,-0.7%,10,-1.2,18,-2.3%
CCC(C)n1c(SCc2ccccc2)nc2ccsc2c1=O (centres undefined),-5%,2.1,?,-5,0.9,2,?
COC(=O)[C@@H](NC(=O)NC1CCCCC1C)C(C)C (some centres undefined),3%,3.3,-0.6%,-25,2.3,11,·
CC1(C)Cc2ccccc2-c2nc(NCCO)n(-c3ccccc3)c(=O)c21,-6%,1.7,1.2%,17,0.3,16,?
CCOC(=O)C1CCN(C(=O)CN(c2ccc3c(c2)OCO3)S(C)(=O)=O)CC1,-6%,-1.3,-1.1%,8,0.1,-6,-17%
COc1ccc(C(=O)NNC(=O)c2ccc(C(C)(C)C)cc2)cc1,27%,-3.8,-0.3%,-20,1.0,-1,·
COc1cc(OC)c(OC)cc1CN1CCN(S(=O)(=O)c2ccc(NC(C)=O)cc2)CC1,?,5.0,-0.3%,2,-0.3,0,·
CCOc1ccc(C(=O)OCC(=O)Nc2nc(OC)cc(OC)n2)cc1OCC,6%,2.4,6.6%,-11,-0.4,2,-2.1%
O=C(Nc1ccc2[nH]c(=O)[nH]c2c1)Nc1ccc(F)cc1F,-2%,-5.4,0.2%,-3,-0.7,23,0.0%
Cc1ccc(NC(=O)c2ccc(=O)[nH]c2)cc1S(=O)(=O)N1CCCCCC1,·,·,10%,12,-0.2,·,0.0%
O=C(CNC(=O)C1CCCCC1)OCC(=O)c1cccc(Cl)c1,·,·,0.5%&-0.3%,7,-0.7&-1.3,·,1.7%&-0.2%
CCC1CCCCN1Cc1nc2c(c(=O)n(C)c(=O)n2C)n1CC(C)C (centres undefined),15%,-0.2,0.3%,10,-0.4,-10,-0.8%
N=c1c(C(=O)NCC2CCCO2)cc2c(=O)n3ccccc3nc2n1C1CCCC1 (centres undefined),5%,-1.2,0.4%,-14,-0.5,-20,-2.7%
CCOC(=O)CSc1nc2ccc(N)cc2s1,-13%,7.1,1.1%,-22,0.7,-1,2.0%
O=C(CCn1c(SCC(=O)c2ccccc2)nc2ccccc2c1=O)NCc1ccc(F)cc1,-19%,-1.0,2.7%,-6,-0.8,2,-2.6%
O=C(Cc1cccc(F)c1F)NC1CCCN(Cc2ccc(Cl)cc2)C1 (centres undefined),18%,-3.4,-2.4%,-5,1.3,-26,-17%
CCOC(=O)c1cc(C(=O)c2cc(Cl)ccc2O)coc1=N,-3%,18,-0.4%,3,0.9,27,·
O=C(CCCn1c(=O)c2ccccc2n(CC(=O)Nc2ccc(F)cc2F)c1=O)NCc1ccccc1Cl,·,·,5.6%,-6,0.7,·,-13%
CCN(CC)S(=O)(=O)c1ccc2oc(C(=O)O)c(C)c2c1,19%,1.1,-0.5%,-13,-0.3,4,7.3%
CCNC(=O)C1(C)CCN1CCS(=O)(=O)c1ccc(C)cc1 (centres undefined),·,·,-0.1%,·,-0.4,·,1.2%

# Further records:
SMILES,Sfp PPTase inh,Menin MLL FP FL,PINK1 expr mod,TRPML1 inh,TRPML1 ag,TRPV1 potentiator,ClpP mod
O=C(Nc1ccon1)c1nc[nH]c1C(=O)NCc1ccccc1,·,·,3.8%,12,-0.5,0,-0.1%
COc1ccc(C(=O)CSc2cc(C)[nH]c(=O)n2)cc1,-6%,?,-0.5%,12,0.5,8,-5.5%
CCN1CCN(C(=O)CN(C)S(=O)(=O)c2ccc3ccccc3c2)CC1,15%,1.1,-1.9%,2,0.8,-2,·
COc1cccc(CC(=O)Nc2ccc3nc(N4CCC(C)CC4)cc(C)c3c2)c1,·,·,3.9%,-2,1.9,·,4.3%
Cc1nc(CNC(=O)CC2C(=O)NCCN2Cc2ccoc2)nc2c1CCCC2 (centres undefined),-10%,-11,-1.2%,3,0.6,-7,1.0%
CCOC(=O)C1=C(c2cccc(Oc3ccccc3)c2)NC(=S)NC1C (centres undefined),0%,3.6,9.7%,5,2.4,10,-1.2%
Cc1oc(-c2cccc(C(F)(F)F)c2)nc1CN1CCC[C@H]1CO,-1%,?,0.1%,-3,0.1,-24,·
COc1ccccc1C(CC(=O)c1ccccc1)CC(=O)c1ccccc1,13%,-3.2,1.5%,-16,0.5,6,·
CC(=O)Nc1ccc(CNC(=O)C[N+]2(C)CCOCC2)cc1,13%,-0.5,-0.4%,10,0.3,-16,·
COc1ccccc1NC(=O)C1=C(C)NC2=C(C(=O)CCC2)C1c1ccc2c(c1)OCO2 (centres undefined),-7%,1.0,1.1%[38.3 µM],64,0.2,6,-29%
O=c1ccc(-c2ccc(S(=O)(=O)NCC3CCN(Cc4ccccc4F)CC3)s2)n[nH]1,8%,·,-0.4%,-7,0.9,13,-12%
COc1ccc(-c2onc(C)c2C)cc1S(=O)(=O)Nc1cccc(C#N)c1,·,·,6.0%,-16,2.2,·,1.3%
Cc1cn([C@H]2C[C@H](O)[C@@H](/C=C/C(=O)NCCc3ccc4c(c3)OCO4)O2)c(=O)[nH]c1=O,·,·,1.7%,-1,-0.5,·,-1.2%
CS(=O)(=O)N1CCN(c2ccc([N+](=O)[O-])c(NCc3ccc(Cl)cc3)c2)CC1,-12%,0.9,2.9%,-2,1.1,3,-2.4%
CCCc1cc(C(=O)N2CCCC(N3CCN(c4ccccc4C)CC3)C2)n(C)n1 (centres undefined),9%,-1.5,-0.7%,-21,-1.2,-19,0.2%
O=C(O)CCC(=O)c1c[nH]c2ccccc12,7%,2.2,-1.8%[38.3 µM],0,-0.7,16,-1.5%
CCC(C)Sc1nc2c(c(=O)[nH]c(=O)n2C)n1C (centres undefined),3%,3.6,2.7%,-7,-0.2,0,-3.9%
COc1ccc(OC)c(/C=C/C(=O)N(C)CC(=O)Nc2cc(C)ccc2C)c1,12%,-4.4,-0.2%,1,-0.6,9,0.5%
COC(=O)c1c(/N=C/NOCc2ccc(Cl)cc2)sc2c1CCN(c1ncc(C(F)(F)F)cc1Cl)C2,?,-0.9,3.8%,9,-0.7,8,-0.8%
COc1cc(/C=N/NC(=O)C2c3ccccc3Oc3ccccc32)ccc1O,-19%,1.7,7.5%,23,1.1,1,-7.9%
COCCNc1nc2c(S(=O)(=O)c3cc(C)ccc3C)nnn2c2ccccc12,-11%,-0.5,9.6%,-2,0.7,23,3.2%
CCOC(=O)CCc1cccc2c1CCC2=O,1%,-0.4,0.3%,18,-0.6,-4,0.1%
N#Cc1ccccc1S(=O)(=O)N1CCC(C(=O)NCc2ccccc2CN2CCCC2)CC1,·,·,1.0%,-10,-0.1,-1,-1.1%
CCCC(=O)N1CCC1(C)C(=O)NCc1ccc(SC)cc1 (centres undefined),·,·,0.2%,·,0.7,·,1.4%
CCN(CC)CCNC(=O)c1sc2nc(-c3ccccc3)cn2c1C,9%,12,-0.5%,7,-0.5,25,1.2%

# (further entries)
SMILES,Sfp PPTase inh,Menin MLL FP FL,PINK1 expr mod,TRPML1 inh,TRPML1 ag,TRPV1 potentiator,ClpP mod
CCOC(=O)c1cc2occc2n1CC(=O)N1CCCc2ccccc21,79µM*,7.9,-2.8%,-11,-0.3,-1,96%
O=C(Nc1ccc(Nc2ccccc2)cc1)c1ccc(Cl)cc1[N+](=O)[O-],·,·,3.9%,-8,1.1,·,0.4%
CCN(C(=O)CN1C(=O)NC(CCSC)C1=O)C1CCS(=O)(=O)C1 (centres undefined),·,·,-1.9%,5,0.0,-2,-1.3%
CC1(C)Oc2ccc3ccc(=O)oc3c2/C(=C/Nc2ccc(O)cc2)C1=O,20%,5.3,0.2%,-9,1.9,-16,·
COC(=O)N1CCC[C@@]2(CCN(C(=O)Nc3ccc(OC)cc3)C2)C1,14%,-2.1,0.7%,·,·,·,·
Cc1cccc(C(=O)Nc2cc(OCc3cccc(F)c3)c(Cl)cc2Cl)c1,-21%,-1.9,8.7%[38.3 µM],-3,0.6,0,?
Cc1cc(OC(=O)Nc2ccccc2)ccc1Cl,·,·,0.2%,-3,-1.1,·,-0.2%
COCCNC(=O)c1ccc2c(c1)N(Cc1cccc(Cl)c1)C(=O)c1ccccc1S2=O (centres undefined),·,·,1.9%,5,-0.6,·,0.1%
COc1ccc(NS(=O)(=O)c2ccc(Cl)s2)cn1,12%,?,-1.4%,9,-0.6,5,1.7%
COc1ccc(Cn2c(C)nc3c(c(=O)c4ccccc4n3C)c2=O)cc1,7%,-0.6,-1.8%,-21,-0.7,-15,0.5%
O=C(COC(=O)CNS(=O)(=O)c1cccc(Br)c1)NC(=O)Nc1ccc2c(c1)OCCO2,8%,1.3,-0.2%,-4,5.0,6,0.5%
O=C(CCn1cccn1)Nc1cccc(C(F)(F)F)c1,·,·,-2.0%,13,1.1,·,0.3%
CC(=O)c1c(C)oc2c1cc(O)c1ccccc12,0%,1.7,-1.0%,14,1.7,9,-3.9%
Cc1ccc(NC(=O)Cn2nnc(-c3ccccc3)n2)c(C)c1,·,·,-1.5%,23,5.4,·,2.7%
